# GCN5L2 inh = inhibitors of human GCN5L2 histone acetyltransferase; GCN5L2 HAT assay, ThioGlo1 CoA-SH fluorescence; 390,000 tested, 0.21% active; AID 504327; Q92830; Potency, µM (top dose mostly 58.9 µM), without a hit: at the top dose activity change, negative = inhibition, actives largely listed as inhibitors
# Target sequence (Q92830 whole entry, looked up): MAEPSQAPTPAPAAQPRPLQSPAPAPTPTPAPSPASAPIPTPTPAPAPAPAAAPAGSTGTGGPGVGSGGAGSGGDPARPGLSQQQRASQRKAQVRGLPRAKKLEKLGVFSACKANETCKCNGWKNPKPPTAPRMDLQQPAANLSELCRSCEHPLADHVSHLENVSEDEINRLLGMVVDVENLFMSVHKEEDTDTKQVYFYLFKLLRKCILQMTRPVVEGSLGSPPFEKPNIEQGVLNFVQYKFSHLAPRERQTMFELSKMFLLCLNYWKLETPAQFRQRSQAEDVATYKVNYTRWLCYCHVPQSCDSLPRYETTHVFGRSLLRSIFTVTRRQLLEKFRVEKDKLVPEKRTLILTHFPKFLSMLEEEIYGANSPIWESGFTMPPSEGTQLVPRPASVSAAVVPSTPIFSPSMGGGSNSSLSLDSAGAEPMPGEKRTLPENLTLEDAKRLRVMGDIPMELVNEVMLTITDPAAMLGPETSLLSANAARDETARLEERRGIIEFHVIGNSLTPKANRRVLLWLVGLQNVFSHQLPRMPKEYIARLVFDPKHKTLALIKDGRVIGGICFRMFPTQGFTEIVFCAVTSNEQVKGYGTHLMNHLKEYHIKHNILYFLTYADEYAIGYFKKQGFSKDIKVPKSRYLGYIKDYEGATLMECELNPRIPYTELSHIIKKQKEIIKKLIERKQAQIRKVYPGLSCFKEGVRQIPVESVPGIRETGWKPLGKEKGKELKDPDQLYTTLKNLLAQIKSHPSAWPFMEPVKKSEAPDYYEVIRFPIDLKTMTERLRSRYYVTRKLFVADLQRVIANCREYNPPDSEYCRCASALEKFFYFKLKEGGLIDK
#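 Compounds, pin-transferred from DMSO stocks, meet 20nM GCN5L2 for 15 min before the reaction begins with H3(1-25) peptide (75uM) and acetyl-CoA (70uM). Thiol-reactive ThioGlo1 reports CoA release over 20 min at room temperature.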
# N370S GC = N370S glucocerebrosidase modulation, Gaucher chaperone candidate; Potency, µM (titrated, usually from 59.4 µM), without a hit: at the highest dose activity change, negative = inhibition, actives largely listed as inhibitors; AID 2101; P04062; 330,000 tested, 0.092% active; N370S GC spleen homogenate, 4MU-glucoside fluorescence;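 further: 0% = full enzyme activity and -100% = no enzyme basal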
# Active calls of the source: *; ? = inconclusive; . = not tested or not shown; & = joins results of further samples; [ ] = remark or other dose. The call rests on the fitted dose curve; in most records, active means well fitted curve in the direction sought with a large enough effect; inconclusive means small, poorly fitted or top-dose-only effect, or another doubt; inactive means no such curve, though single readings can be large; an effect the other way counts as inactive or inconclusive. Unless noted, on the % scale 0 is the no-effect control and ±100 the full control effect; potency means the concentration at half of the fitted maximal effect. This is a subset, and most or all hits are left out here.
# A first look (5 entries):
GCN5L2 inh | N370S GC | Structure
-2% | -5% | O=C(CCCN1C(=O)c2cccnc2C1=O)Nc1ccc(F)cc1Cl
0% | -11% | CCOC(=O)CNC(=O)c1cc(-c2ccccn2)nc2c(C)c(Cl)ccc12
-6% | -2% | CCCC(=O)Nc1c2c(nn1-c1ccccc1)CSC2
-3% | . | Cc1ccc(-c2cc(C(=O)Nc3cc([N+](=O)[O-])ccc3C)no2)cc1F
-15% | 1% | CCN(CC)C(=O)COc1ccc(S(=O)(=O)N2CCCC2)cc1

# The list itself, previewed entries included:
GCN5L2 inh | N370S GC | Structure
-2% | -5% | O=C(CCCN1C(=O)c2cccnc2C1=O)Nc1ccc(F)cc1Cl
0% | -11% | CCOC(=O)CNC(=O)c1cc(-c2ccccn2)nc2c(C)c(Cl)ccc12
-6% | -2% | CCCC(=O)Nc1c2c(nn1-c1ccccc1)CSC2
-3% | . | Cc1ccc(-c2cc(C(=O)Nc3cc([N+](=O)[O-])ccc3C)no2)cc1F
-15% | 1% | CCN(CC)C(=O)COc1ccc(S(=O)(=O)N2CCCC2)cc1
-8% | 3% | COc1cc(NC(=O)CSc2nnc(-c3ccncc3)o2)cc(OC)c1OC
30% | 2% | O=C(Nc1ccc2c(c1)OCCO2)c1ccc(Br)o1
0% | -4% | Cc1ccc(-c2nn3c(=O)c(C)nnc3s2)cc1
19% | -9% | O=C(CN1CCN(Cc2ccccc2Cl)CC1)N/N=C/C=C\c1ccccc1[N+](=O)[O-]
-12% | . | CCc1ccccc1NC(=O)c1sc2nc3c(cc2c1N)CN(Cc1ccccc1)CC3
-1% | . | O=C(NCCCCCCNC(=O)OC1CCS(=O)(=O)C1)OC1CCS(=O)(=O)C1 (stereo not given)
-15% | 1% | O=C(c1cccs1)N1C(=O)c2cccc3cccc1c23
-4% | -4% | CCCC1=[N+](CC(=O)c2ccccc2)CCn2cccc21
1% | 18% | CCOC(=O)c1oc2ccccc2c1N
-6% | -4% | COc1ccccc1NS(=O)(=O)c1ccc2oc(=O)ccc2c1

# Going on with the list.
GCN5L2 inh | N370S GC | Structure
-6% | -16% | CC(C)(C)C(=O)Nc1nnc(SCC(=O)NC2CCCC2)s1
0% | . | Cc1ccc(S(=O)(=O)N2CCC(C(=O)Nc3cccnc3)CC2)cc1
0% | . | O=C(NCC(c1ccco1)S(=O)(=O)c1cccs1)c1ccc(F)c(F)c1 (stereo not given)
-1% | 1% | O=C(CNC(=O)c1ccc(Br)cc1)NC1=NCCS1
-6% | 0% | Cc1cccc(NC(=O)CN2C(=O)/C(=C3\SC(=S)N(CC4CCCO4)C3=O)c3ccccc32)c1 (stereo not given)
-13% | -3% | COCCn1c(SCC(=O)NC2CCCCC2)nnc1-c1ccco1
? | -8% | O=C(O)COCC(=O)N1CCc2c([nH]c3ccccc23)C1C(F)(F)F (stereo not given)
-6% | -8% | Cc1nc(N2CCN(Cc3ccccc3)CC2)nc2c1C(=O)CC(c1ccco1)C2 (stereo not given)
-10% | -14% | COc1ccc(C(=O)N/C(=C/c2cccs2)c2nc3ccccc3[nH]2)cc1OC
-1% | 1% | COCCNC(=O)c1cc2c(=O)n3cccc(C)c3nc2n1C
-7% | -2% | COc1cccc(CN(C)C(=O)c2cc(COc3ccc(-n4cncn4)cc3)on2)c1
-3% | -12% | Cc1cc([N+](=O)[O-])ccc1-c1ccc(/C=N/NC(=O)Cc2ccccc2)o1
0% | -14% | CCCS(=O)(=O)N1CCCC(C(=O)NCCCN(CC)c2cccc(C)c2)C1 (stereo not given)
-4% | ? | CC(C)c1nc(C(N)=O)c2[nH]c(=O)n(-c3ccc(F)cc3)c2n1
-3% | . | CCOC(=O)C1=C(CS(=O)(=O)c2ccc(C)c(C)c2)NC(=O)NC1c1ccccc1OCC (stereo not given)

# Overlap with the part before: 2 compounds; new compounds follow.
GCN5L2 inh | N370S GC | Structure
-4% | ? | CC(C)c1nc(C(N)=O)c2[nH]c(=O)n(-c3ccc(F)cc3)c2n1
-3% | . | CCOC(=O)C1=C(CS(=O)(=O)c2ccc(C)c(C)c2)NC(=O)NC1c1ccccc1OCC (stereo not given)
2% | -2% | Cc1cc(C)c(NC(=O)CN2C(=O)NC3(CCOc4ccccc43)C2=O)c(C)c1 (stereo not given)
-15% | . | Cc1ccc2c(CC(=O)Nc3cccc(C(F)(F)F)c3)coc2c1
-9%&-6%&-8%&-6% | 6%&-7%&-1%&-3%&17% | Cc1cnc(NC(=O)C2=C(O)c3ccccc3S(=O)(=O)N2C)s1
? | -2% | O=C(O)CCS(=O)(=O)c1cccc2cccnc12
-1% | -1% | O=C(Cn1cnc(Cl)c1Cl)c1ccc(F)cc1
-2% | -4% | Cc1ccc(NC(=O)CN2C(=O)NC(Cc3ccccc3)C2=O)cc1 (stereo not given)
-4% | -5% | COc1ccc2nc(NC(=O)Cn3cnc4c(=O)n(C)c(=O)n(C)c43)sc2c1
-6% | 3% | c1ccc(CSc2n[nH]c(-c3ccco3)n2)cc1
6% | . | COc1cccc(Cn2c(CNS(=O)(=O)c3ccc(F)c(Cl)c3)nc3cccnc32)c1
-8% | . | Cc1cccc(CSc2nc3ccncc3n2CC(=O)N(C)C2CCCCC2)c1
-24% | -2% | O=C1c2ccccc2NC2(CCCCC2)N1c1ccc(O)cc1
-2% | . | COC(=O)c1ccccc1NC(=O)CNc1ccc(F)c(S(=O)(=O)N2CCOCC2)c1
-3% | -25% | Cc1cccc(N2CCN(C(=O)c3cccc(S(=O)(=O)N4CCc5ccccc5C4)c3)CC2C)c1 (stereo not given)
-3% | 2% | C=CCNC(=O)c1cn(CC)c2cc(N3CCN(C(=O)c4ccco4)CC3)c(F)cc2c1=O
-1% | -9% | COc1ccc(NC(=O)CN(C)C2CCCCC2)c([N+](=O)[O-])c1

# (listing goes on)
GCN5L2 inh | N370S GC | Structure
-1% | 10% | CCNC(=S)N/N=C/c1cc(C)ccc1C
-3% | 7% | CCOc1ccc(OCC(=O)c2c(O)c3ccccc3oc2=O)cc1
-8% | 5% | Cc1sc(NC(=O)CN(CCc2ccccc2)C(=O)C2CC2)c(C(N)=O)c1C
-14% | -8% | CCn1c(=O)c(=O)[nH]c2c(=O)oc3ccc(S(=O)(=O)Nc4ccc(OC)cc4)cc3c21
-4% | -3% | CCOC(=O)c1cccc(Nc2ncnc3ccccc23)c1
2% | 3% | Cc1ccc(N(CC(=O)Nc2ccc3c(c2)OCCO3)S(C)(=O)=O)cc1
-2% | . | O=C(COC(=O)c1ccccc1O)NCc1ccccc1Cl
2% | 7% | O=C(Cn1c(=O)[nH]c2ccccc2c1=O)Nc1ccc2c(c1)OCO2
-5% | -4% | Cc1nc2c(nnn2Cc2ccccc2)c(=O)n1-c1ccccc1
-15% | -4% | CNC(=O)N(O)C1N(/N=C/c2ccccc2O)C(=S)SC1(C)C (stereo not given)
-4% | 20% | CCOc1ccc(C(=O)NCc2cccs2)cc1
-21% | -7% | CC(=O)N(Nc1ccccc1)c1ccccc1
-18% | . | COc1ccc([C@]2(C(C)C)ON(c3ccccc3C(F)(F)F)C2=O)cc1
-5% | . | CC1CCCN(C(=O)Cn2ncc3c([nH]c4ccccc43)c2=O)C1 (stereo not given)
0% | . | Cc1ccc(NC(=O)C(Cc2ccccc2)NS(=O)(=O)c2cccs2)cc1Cl (stereo not given)

# Next compounds
GCN5L2 inh | N370S GC | Structure
-8% | . | COc1cc(C(=O)OCC(=O)N2CCCC2)cc2c1OCCO2
2% | 1% | CC(OC(=O)CN(C)S(=O)(=O)c1ccc(Cl)cc1)C(=O)Nc1ncc(Cl)cc1Cl (stereo not given)
? | 3% | CN(CC(=O)Nc1ccc(F)c(F)c1F)C(=O)C1=COCCO1
-2% | -15% | COc1cccc(NC(=O)N2CCCC(C(=O)NC3CCCCC3C)C2)c1 (stereo not given)
-10% | -15% | CC(=O)c1ccc(NS(=O)(=O)c2ccc(N/C=C/C(=O)c3ccc(F)cc3)cc2)cc1
-1% | 11% | CC(=O)NC(CCCCNC(=S)NC1CCCCC1)C(=O)O (stereo not given)
-3% | 8% | Nc1nnc(SCC(=O)Nc2cccc(S(=O)(=O)N3CCOCC3)c2)s1
1% | -3% | COc1ccccc1-n1c(SCC(=O)Nc2cc(C)on2)nc2c(c1=O)SCC2
? | 28% | CCc1cc(=O)oc2cc(C)cc(OC(C)C(=O)O)c12 (stereo not given)
-14% | 15% | O=S(=O)(CCSc1nc2ccccc2o1)c1nc2ccccc2s1
-2% | . | COCCN(C(=O)CSCC(=O)Nc1ccc(C)cc1)c1c(N)n(CC(C)C)c(=O)[nH]c1=O
-18% | 4% | CCN1CCN(C(=O)CCN2C(=O)c3ccccc3C2=O)CC1
-17% | -5% | CCn1c(=O)n(-c2ccc(Cl)cc2)c(=O)c2c3c(sc21)COC(C)(C)C3
-6% | . | COc1cc(NC(=O)C2CCCN(S(=O)(=O)c3ccc4c(c3)oc(=O)n4C)C2)c(C(=O)O)cc1OC (stereo not given)
1% | -17% | C[C@H](NC(=O)OCc1ccccc1)C(=O)N[C@@H](Cc1c[nH]c2ccccc12)C(=O)O

# Additional structures follow:
GCN5L2 inh | N370S GC | Structure
-10% | -17% | Cc1cc(C(=O)Nc2ccccc2N2CCCCC2)no1
3% | 1% | c1ccc(NC2=NCCN2CC2CCC2)cc1
-4% | 3% | CN(C(=O)COC(=O)c1ccc2c(c1)OCO2)c1c(N)n(Cc2ccccc2)c(=O)[nH]c1=O
1% | -10% | CCC(=O)c1ccc(OC(=O)c2cnccn2)cc1
-19% | 0% | CCc1ccc(CN(C)C(=O)c2cc(=O)c3ccccc3o2)cc1
-2% | . | Cc1ccc(NC(=O)N2CCN(C)c3ncccc32)cc1C
-5% | ? | CCN(CC)CCCN(Cc1cc2cc3c(cc2[nH]c1=O)OCCO3)C(=O)Nc1ccccc1
2% | . | CCCCn1c(N)c(N(CCOC)C(=O)CN2C(=O)C3CCCCC3C2=O)c(=O)[nH]c1=O (stereo not given)
0% | 4% | CCCn1c(-c2ccc(C(=O)OC)cc2)nc2c1c(=O)[nH]c(=O)n2Cc1ccccc1
-15% | . | COCCNC(=O)c1onc(CSc2cccc(C)c2)c1C(=O)O
-5% | -5% | CN(C)CCN(C(=O)c1ccc2ccccc2c1)c1nc2ccc(F)cc2s1
-6% | 2% | CC1CC(C)CN(S(=O)(=O)c2ccc3c(c2)C(C)(C)C(=O)N3C)C1 (stereo not given)
-8% | -21% | Cc1cccc(NC(=O)c2ccc(S(=O)(=O)N3CCCCCC3)cc2)n1
0% | 7% | Cc1ccc(-c2cc(Cc3cccs3)c(=O)[nH]n2)cc1
-13% | 0% | CC(C)COc1cccc(-c2cc(C(=O)N/N=C/c3ccncc3)c3ccccc3n2)c1

# (list continues)
GCN5L2 inh | N370S GC | Structure
-15% | 4% | COc1ccc(/C=N/n2c(-c3n[nH]c4c3CCC4)n[nH]c2=S)c(OC)c1OC
-3% | -10% | O=C(NCCc1ccccc1)C(c1ccccc1)N(C(=O)c1csnn1)C1CC1 (stereo not given)
-4% | -5% | CCOC(=O)c1nnn(-c2nonc2-n2cccc2)c1CN1CCC(C)CC1
-12% | 0% | CCN(CC)C(NC(=O)Cc1ccccc1)C(Cl)(Cl)Cl (stereo not given)
-2% | . | Cc1nn(-c2ccccc2)c2[nH]c(=O)cc(C(F)F)c12
-6% | -1% | Cc1ccc(OCCOCCN2CCCC2)c(Br)c1
-15% | . | CCCCOc1ccccc1-c1ccccc1CN1[C@@H](C(C)C)COCCS1(=O)=O
-21% | -7% | CC1(C)CC(=O)c2c(O)cc(O)cc2O1
-29% | 4% | O=C(COc1ccc(Cl)cc1)Nc1ccc(C(=O)O)cc1NC(=O)COc1ccc(Cl)cc1
-7% | -23%[12.8 µM] | CCCNc1[nH]c(=O)n(C)c(=O)c1N=O
-6% | 1% | Cc1ccc2c(c1)N(CC(=O)c1cccc(Cl)c1)C(=O)C(C)O2 (stereo not given)
-2% | -6% | Cc1ccccc1-n1nnnc1-c1ccccc1
1% | -26% | CCN(CC)CCn1c(=S)[nH]c2cc(C(=O)NCc3ccc(C)cc3)ccc2c1=O
1% | . | CCOC(=O)Cn1nc(-c2ccccc2)c2cnc3ccc(OCC)cc3c21
-2% | 2% | COC(=O)C(NS(=O)(=O)c1ccccc1Cl)c1ccccc1 (stereo not given)

# (listing goes on)
GCN5L2 inh | N370S GC | Structure
0% | 2% | CSc1nnnn1CCn1nnnc1SC
0% | 0% | CCOC(=O)/C(N=Nc1ccc(F)cc1)=C(/O)c1ccc([N+](=O)[O-])cc1
-2% | -2% | CCOC(=O)C1CCN(C(=O)CCCn2nc(C)c3c(C)n(-c4ccc(C)cc4)nc3c2=O)CC1
. | -1% | Cc1cc(NC(=O)c2ccc3c(c2)C(=O)N(CCC(C)C)C3=O)no1
-1%[0.501 µM] | -1% | O=C(c1ccccc1)N1CCN(C(=O)c2ccc(OC(F)(F)F)cc2)CC1
-12% | -5% | COc1ccc2c(c1OC)C(=O)OC2Nc1nc(-c2ccc([N+](=O)[O-])cc2)cs1 (stereo not given)
-6% | -10% | CCOc1ccc(-n2nnnc2SCC(=O)Nc2cccc(O)c2)cc1
-3% | . | CCc1cccc(NC(=O)C(Cc2ccccc2)NS(=O)(=O)c2ccc3c(c2)c(=O)n(C)c(=O)n3C)c1 (stereo not given)
-1% | ? | CC1=C(OC(=O)c2ccccc2)C(C)(C)C(c2ccccc2)OC1=O (stereo not given)
2% | 0% | COc1ccccc1S(=O)(=O)Nc1cc(C)nn1-c1ccc(C)cc1
-17% | 3% | Nc1[nH]c(=S)[nH]c(=O)c1-c1ccccc1
-6% | 7% | Cc1nc2ccccc2c(=O)[nH]1

# High-throughput results (PubChem)
